# VDR inh: blocks the human vitamin D receptor | P11473 | VDR-SRC2-3 peptide fluorescence polarization, 2 h | Potency, µM, without a hit: max response, negative = inhibition, actives largely listed as inhibitors | 400,000 compounds, 0.93% hits; active means well fitted inhibition curve with a large enough effect; inconclusive means small, poorly fitted or top-dose-only effect, or another doubt; inactive means no such curve, though single readings can be large or run the other way; further: series mostly up to about 120 µM
# Target sequence (P11473 whole entry, looked up): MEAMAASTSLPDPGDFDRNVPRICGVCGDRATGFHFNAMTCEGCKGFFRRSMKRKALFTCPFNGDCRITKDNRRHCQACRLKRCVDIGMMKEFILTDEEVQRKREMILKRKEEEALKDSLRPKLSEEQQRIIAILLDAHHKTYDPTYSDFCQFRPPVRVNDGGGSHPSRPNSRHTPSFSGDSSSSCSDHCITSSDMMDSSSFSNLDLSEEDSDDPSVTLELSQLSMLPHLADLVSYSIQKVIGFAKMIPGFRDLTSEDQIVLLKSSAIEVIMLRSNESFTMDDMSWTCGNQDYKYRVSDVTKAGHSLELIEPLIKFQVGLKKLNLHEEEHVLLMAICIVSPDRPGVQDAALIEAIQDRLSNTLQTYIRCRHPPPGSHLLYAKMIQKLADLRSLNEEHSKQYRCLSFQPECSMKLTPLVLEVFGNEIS
#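 Measured by FP: displacement of SRC2-3 coactivator peptide from VDR by library compounds, following a two-hour ambient incubation.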
# Starred values were filed as active, the others as inactive; ? = inconclusive; [ ] = remark or other dose. On the % scale 0 is the no-effect control and ±100 the full control effect; potency means the concentration at half of the fitted maximal effect. Only part of the results is shown. The share of hits here may be higher or lower than overall.
VDR inh	Compound
6%	O=C(CN(c1ccccc1)S(=O)(=O)c1ccccc1[N+](=O)[O-])NN=C1CCCCCCC1
-23%	Cn1c(SCc2ccc(C#N)cc2Cl)nc2ccccc21
?	Cc1ccc(SC2=C(Sc3ccc(C)cc3)C(=O)c3ccccc3C2=O)cc1
-9%	CCOc1cc2c(cc1OCC)C(c1ccc(OC)cc1)N(c1ccccc1)C(=O)C2 (stereo unspecified)
-1%	O=C(COc1ccc(/C=N/NC(=O)c2ccccc2O)cc1)Nc1ccccc1
-3%	Cn1c(N)c(C#N)c2c(c1=S)COC(C)(C)C2
-14%	O=C(COC(=O)c1cccc(Cl)c1)Nc1cc(S(=O)(=O)N2CCOCC2)ccc1N1CCOCC1
-17%	C#C[C@]1(OC(C)=O)CCC2C3CCC4=CC(=O)CC[C@@H]4C3CC[C@@]21C (stereo partly specified)
-4%	CNC(=S)Nc1ccc(Br)cc1
-1%	Cc1occc1C(=O)NNC(=O)COc1ccc(Br)cc1Br
7%	CC(=O)Nc1ccc(NC(=O)COC(=O)c2ccc(S(=O)(=O)NCc3ccco3)cc2)cc1
9%	CCn1c(=NC(=O)CSCC(=O)Nc2nccs2)sc2ccccc21

# Next part:
VDR inh	Compound
1%	COc1cc(NC(=O)CSCC(=O)N(C)C2CCCCC2)cc(OC)c1
4%	COc1cn(CC(=O)Nc2cc(C)cc(C)c2)c(CN2CCCCC2)cc1=O
-9%	CC1CCN(CCCCOc2ccc(Br)cc2)CC1
-3%	Nc1nc(COc2ccccc2C=O)nc(Nc2ccccc2)n1
2%	O=C(Cn1c2c(c(-c3ccccc3Cl)cc1=O)CCC2)NCC1CCCO1 (stereo unspecified)
1%	CCn1c(NCc2cc(OC)c(OC)c(OC)c2)nc2ccccc21
-9%	COC(=O)C1=C(C(=O)OC)[C@@H]2N(C)c3ccc(OC)cc3[C@@]23C[C@@H](C(=O)OC)N(S(=O)(=O)c2ccc([N+](=O)[O-])cc2)C3=N1
-5%	Cc1cccc(C(=O)NC(NC(=S)Nc2ccc(S(N)(=O)=O)cc2)C(Cl)(Cl)Cl)c1 (stereo unspecified)
-21%	Fc1ccc(C2=NN(c3ccccc3)C(c3ccco3)C2)cc1 (stereo unspecified)
14%	CCS(=O)(=O)N1CCN(C(=O)c2cccnc2)CC1
1%	COc1ccc2c(c1)nc(N)n2Cc1ccccc1
-5%	Cc1ccc(-c2nnc(N3CCN(C(=O)COc4ccccc4)CC3)c3ccccc23)cc1

# A few values from the list:
# VDR inh, COC(=O)C1=C(C(=O)OC)[C@@H]2N(C)c3ccc(OC)cc3[C@@]23C[C@@H](C(=O)OC)N(S(=O)(=O)c2ccc([N+](=O)[O-])cc2)C3=N1 → -9%
# VDR inh, COc1ccc2c(c1)nc(N)n2Cc1ccccc1 → 1%
# VDR inh, COc1cc(NC(=O)CSCC(=O)N(C)C2CCCCC2)cc(OC)c1 → 1%
# VDR inh, Cc1ccc(-c2nnc(N3CCN(C(=O)COc4ccccc4)CC3)c3ccccc23)cc1 → -5%
# VDR inh, COc1cn(CC(=O)Nc2cc(C)cc(C)c2)c(CN2CCCCC2)cc1=O → 4%

# Next results
VDR inh	Compound
1%	CCCC(C(=O)c1ccccc1)n1cncn1 (stereo unspecified)
-8%	CN(CC(=O)Nc1cccc(F)c1)C(=O)c1ccc(COc2ccccc2)o1
40µM*	COc1ccc(CNc2ncnc3ccc(-c4ccoc4)cc23)c(OC)c1
-15%	O=C(O)C1CCC(CNS(=O)(=O)c2ccc(Cl)cc2)CC1 (stereo unspecified)
0%	CSc1ccccc1NC(=O)CSCc1ccc(C)cc1
-13%	COc1cccc(Nc2nc(N)c([N+](=O)[O-])c(NCc3ccco3)n2)c1
-20%	O=C(c1coc(=O)c(Br)c1)N1CCC(C(O)(c2ccccc2)c2ccccc2)CC1
-11%	COc1cccc(C(=O)N/N=c2\oc3c(OC)cccc3cc2C(=O)NCc2ccccc2)c1
2%	COc1ccc2nc(NC(=O)c3nc(S(=O)(=O)Cc4ccccc4)ncc3Cl)sc2c1
13%	C=CCN(C(=O)c1csnn1)C(C(=O)NCc1ccccc1)c1cccs1 (stereo unspecified)
4%	O=C(NCc1ccco1)c1ccc(Cn2c(=O)c3ccccc3n(Cc3ccc(Cl)cc3)c2=O)cc1
-23%	Cc1ccc(C(=O)N2CCCCCC2)cc1Br

# Next results follow:
VDR inh	Compound
2%	CC(C)(C)OC(=O)NCCc1n[nH]c(=S)o1
3%	Cc1ccc(N(CC(=O)Nc2cccc(N(C)S(C)(=O)=O)c2)S(C)(=O)=O)cc1
5%	Cc1ccc(C(C(=O)NC(C)(C)C)N(C(=O)c2csnn2)C2CC2)cc1 (stereo unspecified)
-15%	O=C(O)COCC(=O)Nc1ccc(Oc2ncnc3cc(Cl)ccc23)nc1
23%	CN(C)S(=O)(=O)N1CCN(c2ccccc2)CC1
-15%	O=c1c2ccccc2c(/C=N/n2cnnc2)c(O)n1-c1ccccc1F
1%	COc1ccc(-c2nc(NC(=O)CCNC(=O)c3ccco3)sc2C)cc1
-18%	Cc1ccc(S(=O)(=O)c2c(C)nn(C(C)(C)C)c2OC(=O)C2CCCC2)cc1
-3%	CC1CC(C)CN(CCOc2ccc(Cl)cc2Cl)C1 (stereo unspecified)
-18%	CN(C(=O)c1ccco1)c1nnc(-c2ccc(F)cc2)s1
-4%	COc1ccc(-c2ccc3c(c2)S(=O)(=O)c2cccc(C(=O)NCCOc4ccccc4)c2C3=O)cc1OC
5%	CCC(=O)NC(=S)Nc1ccc(Cl)cn1

# Following part
VDR inh	Compound
-1%	O=C(NCc1ccccc1Cl)c1ccc2c(O)c(S(=O)(=O)c3ccccc3)c(=O)[nH]c2c1
-19%	Cc1ccccc1-n1c(=O)cc(N2CCN(Cc3ccccc3)CC2)[nH]c1=O
-1%	N#Cc1cccc(NC(=O)CCNS(=O)(=O)c2ccc3[nH]c(=O)oc3c2)c1
-5%	COc1ccc(-n2nnnc2SCC#CCO)cc1
7%	COC(=O)c1ccc(NC(=O)CSc2cn(CC(=O)N3CCCCCC3)c3ccccc23)cc1
15%	CCOC(=O)C1CCCN(c2c(NCC3CCCO3)c(=O)c2=O)C1 (stereo unspecified)
17%	CCc1ccc(NC(=S)NC(=O)c2c(-c3ccccc3Cl)noc2C)cc1
5%	O=C(Nc1ccccc1)N1CCCc2ccccc21
-7%	Cc1nc(N2CCCC2)c2c(C(=O)N3CCN(c4cccc(C)c4C)CC3)c(C)oc2n1
9%	COc1ccc(-c2nncnn2)cc1
6%	CN(C)c1ccc(/C=C2\Oc3ccc(C#Cc4cccc(N)c4)cc3C2=O)cc1
-1%	Cc1cn(C2CC3OCC(NC(=O)C(NC(=O)OC(C)(C)C)C(C)OCc4ccccc4)C3O2)c(=O)[nH]c1=O (stereo unspecified)

# The list continues:
VDR inh	Compound
0%	COc1cc2nc(C(C)(C)C)oc(=O)c2cc1OC
4%	CCCC(=O)Nc1nc(-c2ccccc2)c(CC)s1
-3%	Cc1ccc2cc(-c3noc(C(C)(C)C)n3)c(=O)[nH]c2c1
-4%	Cc1ccc(CN2CC(C(=O)N(CC(C)C)c3c(N)n(Cc4ccccc4)c(=O)[nH]c3=O)CC2=O)cc1 (stereo unspecified)
-14%	CC1=C(C(=O)OC(C)(C)C)C(c2ccc(Br)cc2)NC(=O)N1CCCC(=O)O (stereo unspecified)
9%	CNc1cc(Cl)nc(SC)n1
9%	CSc1cccc(NC(=S)N2CCCN(Cc3ccccc3F)C2)c1
18%	CCCCCC(=O)N/N=C/c1ccccc1[N+](=O)[O-]
-26%	CN(C)CCN(C(=O)c1ccc(C(=O)c2ccccc2)cc1)c1nc2cc3c(cc2s1)OCO3
40%[activator]	O=c1c2ccccc2n(Cc2ccccc2F)c(=O)n1Cc1ccccc1F
-12%	Cc1cc(=O)c2cc(NC(=O)c3ccccc3Cl)ccc2[nH]1
-19%	Cc1ccc(-c2cc3c(N=O)c4ccccc4c-3n[nH]2)cc1

# The list continues:
VDR inh	Compound
5%	CC1(NC(=S)NCCCCCCNC(=S)NC2(C)CCS(=O)(=O)C2)CCS(=O)(=O)C1 (stereo unspecified)
-5%	CCCc1cc(=O)[nH]c(SCC(=O)NC(=O)NC2CCCC2)n1
4%	O=C(CSc1nncn1-c1ccccn1)Nc1ccccc1Cl
0%	Cc1ccc(OCC(=O)Nc2ccc(-c3nc4ncccc4o3)cc2)c(C)c1
4%	CC(=O)Nc1ccc(NC(=O)CC2CCCC2)cc1
0%	CCOCC(=O)N1CCCC(C(=O)OCC)C1 (stereo unspecified)
1%	CCOC(=O)c1c(C)c(C(=O)NCCOC)c(C)n1CC
-15%	CCOc1ccc(CCNC(=O)c2ccc(C)c(S(=O)(=O)N3CCOCC3)c2)cc1OCC
-13%	CS(=O)(=O)N1CCN(c2ccc(C(=O)NC34CC5CC(CC(C5)C3)C4)cc2[N+](=O)[O-])CC1
-11%	Cc1ccc(NC(=O)[C@H](C)NC(=O)C2CCN(C(=O)[C@@H](N)CC(C)C)CC2)cc1
-11%	CCOCCn1c(SCc2ccc(F)cc2)nc2c1c(=O)[nH]c(=O)n2C
-2%	COc1ccccc1NC(=O)CSc1nnc(-c2ccoc2C)n1CCc1ccccc1

# (more compounds)
VDR inh	Compound
1%	CCOc1cc(NC(=S)NCCCN2CCOCC2)c(OCC)cc1NC(=O)c1cccc(C)c1
-1%	Cc1cccc(CN2CCCC(C(=O)Nc3ccc(-c4cscn4)cc3)C2)c1 (stereo unspecified)
79µM*	COc1ccc(-c2ccc(C(=S)N3CCN(C(C)=O)CC3)o2)cc1
-19%	CC(=O)c1sc(Nc2ccc(C)cc2)nc1C
-5%	COC(=O)c1c(C)oc(C)c1S(=O)(=O)NC(c1ccccc1)c1ccccc1
5%	Cc1ccccc1Nc1nc(N)nc(CN(C)c2ccccc2)n1
15%	O=C(NCc1cccs1)c1ccc2c(c1)sc1nc(-c3ccc(F)cc3)cn12
-20%	COc1ccc(N2CCN(C(=O)Cc3ccc(Br)cc3)CC2)cc1
16%	COc1ccccc1-c1nnc2sc(-c3cc4ccccc4o3)nn12
-11%	CCOC(=O)c1ccc(OCc2c(C)noc2C)cc1
13%	O=C(CSc1nc(-c2ccccc2)cc(C(F)(F)F)n1)NCCN1CCOCC1
-8%	O=C(NCc1ccc(F)cc1)C1CCN(S(=O)(=O)N2CCOCC2)CC1

# In the list so far, 2 contain a thiophene ring, fused or not.
VDR inh	Compound
13%	C=CCN(C(=O)c1csnn1)C(C(=O)NCc1ccccc1)c1cccs1 (stereo unspecified)
15%	O=C(NCc1cccs1)c1ccc2c(c1)sc1nc(-c3ccc(F)cc3)cn12

# (continued)
VDR inh	Compound
-19%	COc1ccc(S(=O)(=O)N2CCOCC2)cc1NC(=O)CCNC(=O)c1ccc(Cl)cc1
-9%	CCOC(=O)CNc1ncc([N+](=O)[O-])cc1C#N
-2%	CSCCCN1CCCC(CO)(Cc2ccc(F)cc2)C1 (stereo unspecified)
2%	CC1CCCCC1NC(=O)C1CC(=O)N(Cc2ccccc2)C1 (stereo unspecified)
10%	NC(=O)COc1cc2oc(=O)c3c(c2cc1Cl)CCCC3
?	CCOC(=O)N1CCN(C(=O)CSc2nnc(-c3cccc(OC)c3)o2)CC1
0%	CCOc1cc(C#N)c(NC(=O)Cn2nnc3ccccc32)cc1OCC
-13%	CCO[C@H]1OC(C(=O)N2CCN(Cc3ccc4c(c3)OCO4)CC2)=C[C@@H](c2cn(C(C)=O)c3ccccc23)[C@@H]1CCCO
-14%	O=C(O)C1C2CCC(O2)C1C(=O)Nc1ccccc1Br (stereo unspecified)
10%	O=C(CN1CCNCC1)Nc1ccccc1Cl
25%	Oc1nc(Nc2ccc(Cl)cc2Cl)sc1/C=C1\C=Nc2ccccc21
18%	Cc1csc(SCc2nnc(-c3ccccc3Br)o2)n1

# New compounds follow.
VDR inh	Compound
?	CC(=O)C1=C(O)C(=O)N(c2ccc(Br)cc2)C1c1ccc(Cl)cc1 (stereo unspecified)
-1%	CC(C)(C)NC(=O)NC(=O)CSc1cccc(C(F)(F)F)c1
4%	O=C(Nc1cccc(F)c1)c1ccc2oc(=O)n(Cc3ccccc3)c2c1
0%	O=C(CCC(=O)N1CCOc2ccc(Cl)cc21)NCCCN1CCOCC1
-9%	Cc1ccc(-c2nc(CSCC(=O)NC3CCN(Cc4ccccc4)CC3)c(C)o2)cc1
17%	COc1cc(/C=C2/SC(=S)N(C)C2=O)ccc1OC(=O)c1ccco1
-6%	CC(C)(C)n1nnnc1C(c1ccc2ncccc2c1)N1CCC(O)CC1 (stereo unspecified)
?	O=C(c1ccccc1)C(CCC(CN1CCOCC1)C(=O)c1ccccc1)CN1CCOCC1 (stereo unspecified)
-1%	COc1ccc(/C=C2\SC(N3CCc4ccccc4C3)=NC2=O)cc1OC
5%	Cc1noc(C)c1COc1ccc(C(=O)N(C)CCOc2ccccc2)cc1
-1%	CCN(CC)CCCNC(=O)CN1N=C(c2ccccc2)CCC1=O
-7%	CC(=O)N(C)c1ccc(NC(=O)Cc2cccs2)cc1

# (cont.)
VDR inh	Compound
-9%	COc1ccc(NC(=O)C2=CC(c3ccc(OC)c(OC)c3)=NS(=O)(=O)N2C)cc1
-14%	Cc1ccc(O)c(N=Cc2ccc(C)s2)c1
11%	c1ccc(-c2cnn3c(-c4ccccc4)c(-c4ccccc4)nc3n2)cc1
3%	O=C(NCCN1CCOCC1)c1ccc(Cl)c(S(=O)(=O)N2CCCCCC2)c1
-5%	CC/C(=C\C(=O)c1ccncc1)Nc1ccc(O)cc1
7%	COc1ccc(C(=O)NC(c2ccc(Cl)cc2)c2cc(Cl)c3cccnc3c2O)cc1 (stereo unspecified)
-2%	Cc1c(Cl)cccc1NC(=O)Cn1nc(C(F)(F)F)c2c1CCC2

# Random excerpt: four compounds from above.
VDR inh	Compound
5%	CC1(NC(=S)NCCCCCCNC(=S)NC2(C)CCS(=O)(=O)C2)CCS(=O)(=O)C1 (stereo unspecified)
0%	CCOc1cc(C#N)c(NC(=O)Cn2nnc3ccccc32)cc1OCC
3%	Cc1ccc(N(CC(=O)Nc2cccc(N(C)S(C)(=O)=O)c2)S(C)(=O)=O)cc1
10%	O=C(CN1CCNCC1)Nc1ccccc1Cl
